HSV augment: enhancers of HSV replication in host cells, fold increase, host cell viability; maximum fold increase; HSV replication augmentation in cells; 220,000 tested, 0.005% active;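 active = peak rise of 1.5-fold or more in the series; tested in PC3 cells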;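 also: first round at 10 µM; read as green reporter fluorescence; hits show the peak of a series up to 25 µM; 1 = signal of infected wells without compound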
GALR2 ag: GALR2 receptor agonists, primary screen, cell-based; Galanin receptor type 2 (Homo sapiens), O43603; GALR2-expressing cells, agonist activation read-out; activation, %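 (tested at 5 µM)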; 140,000 tested, 0.48% active; AID 803, 2007;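 active = above mean plus 3 SD of all compounds, about 5% in these data, not always enough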;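 also: 0% = vehicle buffer wells and 100% = reference agonist at full effect; tested in CHO reporter cells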
Target sequence (O43603 whole entry, looked up): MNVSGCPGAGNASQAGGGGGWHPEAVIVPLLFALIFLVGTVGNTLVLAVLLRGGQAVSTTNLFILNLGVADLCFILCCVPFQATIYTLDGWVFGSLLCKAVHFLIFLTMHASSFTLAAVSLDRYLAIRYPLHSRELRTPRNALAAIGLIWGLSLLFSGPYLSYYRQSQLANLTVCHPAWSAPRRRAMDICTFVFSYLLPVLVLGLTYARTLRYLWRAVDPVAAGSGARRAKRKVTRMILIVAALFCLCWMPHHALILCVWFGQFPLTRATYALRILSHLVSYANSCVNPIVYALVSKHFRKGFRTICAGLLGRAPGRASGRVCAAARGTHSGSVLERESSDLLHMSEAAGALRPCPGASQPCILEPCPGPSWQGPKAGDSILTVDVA
RGS16-Gao HTS: modulators of RGS16 binding to Galphao, primary screen, biochemical, human proteins, multiplexed bead flow cytometry; binding response (% of control), % at 10 µM; Regulator of G-protein signaling 16 (Homo sapiens) + Guanine nucleotide-binding protein …; 220,000 tested, 0.38% active; bead-based flow cytometry RGS16-Galphao binding, fluorescence; actives lie on both sides;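 active = below 25% or above 175%, edge rows of some plates excepted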;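 also: Galphao activated by GDP with aluminum fluoride before binding; 100% = wells without compound and 0% = beads without RGS; some results beyond the cut were filed as inactive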
Target sequence (O15492 whole entry, looked up): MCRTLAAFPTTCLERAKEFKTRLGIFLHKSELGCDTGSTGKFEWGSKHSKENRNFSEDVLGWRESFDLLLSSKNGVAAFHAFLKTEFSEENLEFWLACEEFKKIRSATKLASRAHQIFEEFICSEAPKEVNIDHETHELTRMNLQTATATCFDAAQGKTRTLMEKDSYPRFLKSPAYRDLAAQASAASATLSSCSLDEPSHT
Target sequence (P09471 whole entry, looked up): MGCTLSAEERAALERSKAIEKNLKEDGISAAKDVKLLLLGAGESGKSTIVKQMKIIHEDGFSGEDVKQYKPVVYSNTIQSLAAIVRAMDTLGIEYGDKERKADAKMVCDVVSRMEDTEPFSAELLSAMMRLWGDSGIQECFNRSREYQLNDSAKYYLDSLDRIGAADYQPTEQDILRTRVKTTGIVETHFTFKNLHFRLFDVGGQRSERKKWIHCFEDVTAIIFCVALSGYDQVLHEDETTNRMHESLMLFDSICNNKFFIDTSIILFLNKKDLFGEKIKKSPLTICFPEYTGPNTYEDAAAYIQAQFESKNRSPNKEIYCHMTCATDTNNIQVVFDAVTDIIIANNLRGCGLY
PKD1 inh: inhibitors of human PKD1 kinase, biochemical, fluorescence polarization | 200,000 tested, 0.056% active | PKD1 kinase fluorescence polarization assay | Serine/threonine-protein kinase D1 (Homo sapiens), Q15139 | AID 797, 2007 | inhibition, %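 (about 10 µM by stock and volumes)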;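 active = inhibition of 50% or more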;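 also: controls were vehicle for no effect and a reference inhibitor for full effect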
INS promoter inh: inhibitors of insulin promoter-driven GFP, primary screen, imaging, TRM-6 cells (human fetal islet line), eGFP reporter, cell count; reporter expression induced with tamoxifen; inhibition, % at 2 µM; 130,000 tested, 0.9% active;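 active = inhibition above the mean plus 3 SD, with well images judged a real hit on visual review, cut at about 60% in these data, passing the limit was not always enough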
INS promoter inh cell count: also measured in INS promoter inh; calls as there; normalized cell count, %; measured here: cell count, toxicity; reference of the scale not given here;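 cells exposed to compound for 48 h; stained nuclei by imaging scaled within each plate; lower means fewer cells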
HSV augment primary fold: recorded beside HSV augment, whose call it bears; fold increase; compound at 10 µM; measured here: primary screen fold increase 10 uM; tested in PC3 cells;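 GFP signal in the first replicate; 1 = infected wells without compound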
* hit, by the source's call; i = inactive; . = no result given.

SMILES | HSV augment | HSV augment primary fold | GALR2 ag | RGS16-Gao HTS | PKD1 inh | INS promoter inh | INS promoter inh cell count
COc1cc(/C=C2\SC(=S)NC2=O)ccc1OS(=O)(=O)c1ccccc1 | i | 1.2 | -1.6 | 56 | -14 | -27 | 99
Nc1c(C(=O)NCC2CCCO2)c2nc3ccccc3nc2n1-c1ccccc1 (stereo not drawn) | i | 0.68 | 8.1 | 99 | -4 | -21 | 71
CCOc1ccccc1C1CC(=O)NC(SCC)=C1C#N (stereo not drawn) | i | 0.95 | -2.7 | 101 | -1 | -41 | 49
Cc1ccc(NC(=O)/C(C#N)=N/Nc2ccc(C(=O)O)cc2)c(C)c1 | i | 1.1 | . | 101 | . | . | .
COC(=O)c1ncn(C2OC(COC(C)=O)C(OC(C)=O)C2OC(C)=O)n1 (stereo not drawn) | i | 0.97 | -1.2 | 108 | -2 | -17 | 164
CN(C)NC(=O)C(NC(=O)c1ccc(N)cc1)C12CC3CC(CC(C3)C1)C2 (stereo not drawn) | i | 0.94 | . | 94 | -9 | 12 | 117
CC(C)[C@H](NC(=O)NCCc1ccc(F)cc1)C(=O)O | i | 1.1 | -2.4 | 108 | -13 | . | .
COc1ccc(CN2CCNC(=O)C2CC(=O)N2CCCCO2)cc1OC (stereo not drawn) | i | 0.92 | . | 101 | -7 | . | .
N/C(=N\OC(=O)CC1CCCCC1)c1ccc([N+](=O)[O-])cc1 | . | . | -0.3 | 99 | 8 | 50 | 150
COc1ccc(C(=O)NC2CC(C)(C)Cc3occc32)cc1 (stereo not drawn) | i | 0.97 | -0.6 | 109 | -6 | . | .
Cc1ccc(NS(=O)(=O)c2ccc(C)c(NC(=O)COc3ccccc3)c2)c(C)c1 | i | 0.98 | -1.4 | 102 | -7 | 11 | 93
COC(=O)c1ccc(Oc2c(C)oc3cc(OCc4cnn(-c5ccccc5)c4)ccc3c2=O)cc1 | i | 1 | -2.1 | 101 | -10 | . | .
CCOc1ccc(NC(=O)C2CC(=O)N(C(C)C)C2)cc1 (stereo not drawn) | . | . | -0.9 | 98 | -2 | -12 | 126
CCC(=O)NCCc1nc2ccccc2n1CC(=O)c1ccccc1 | i | 0.78 | -1.8 | . | -15 | 29 | 95
COc1ccc2c(C)cc(=S)[nH]c2c1 | i | 1.1 | . | 99 | -3 | . | .
COC(=O)c1ccccc1NC(=O)c1ccc2nccnc2c1 | i | 0.82 | . | 94 | 7 | 67 | 60
O=C1CC(C(=O)Nc2ccccc2)C2(CCCC2)O1 (stereo not drawn) | i | 0.94 | 1.0 | 99 | 3 | 0 | 99
CCC1(C)Cc2c(C#N)c(N)sc(=S)c2CO1 (stereo not drawn) | i | 1.1 | -2.7 | 106 | 6 | -79 | 39
O=C(CN1C(=O)CS/C1=C\c1nc(-c2ccc(Cl)cc2)cs1)Nc1cccnc1Cl | i | 1.2 | . | 105 | -7 | -10 | 59
Cc1ccc(C(=O)Nc2cccnc2N2CCN(C)CC2)cc1 | i | 1.1 | . | 100 | -1 | . | .
N#Cc1cccnc1N1CCN(C(=O)COCC(=O)O)CC1 | i | 0.97 | . | 103 | . | . | .
COc1ccc(S(=O)(=O)N(CCN2CCOCC2)Cc2cc(OC)ccc2OC)cc1 | i | 0.99 | -2.1 | 158 | 7 | -31 | 144
CCn1c(SCC(=O)OC)nnc1-c1ccc(C)cc1 | i | 0.89 | . | 90 | . | . | .
O=C(Nc1ccc(Cl)cc1)Nc1nnc(SCc2ccccc2)s1 | i | 0.95 | 0.4 | 105 | -5 | . | .
O=C(Nc1c(F)cccc1F)c1cnc(N2CCN(c3ccccn3)CC2)c2ccccc12 | i | 0.78 | -2.4 | 99 | 1 | 25 | 140
Continued.
SMILES | HSV augment | HSV augment primary fold | GALR2 ag | RGS16-Gao HTS | PKD1 inh | INS promoter inh | INS promoter inh cell count
N#Cc1ccc(Oc2ccc(-c3nc4ccccc4nc3-c3ccccc3)cc2)cc1C#N | i | 1 | 0.3 | 95 | -10 | -17 | 114
CCN=C1SC(C(=O)Nc2cccc(C)c2)CC(=O)N1CC (stereo not drawn) | i | 0.87 | -0.8 | 94 | 8 | . | .
O=C(Nc1ncc2c(n1)-c1ccccc1CC2)C1CC1 | i | 1.2 | . | 102 | 0 | . | .
COc1cc(/C=N\NC(=O)CNC(=O)c2cccc([N+](=O)[O-])c2)ccc1O | i | 0.77 | -3.2 | 97 | -4 | -11 | 71
Cc1cc(C(=O)NCCc2ccccc2)c2cc(F)ccc2n1 | i | 0.82 | . | 100 | 3 | . | .
CC1Cc2ccccc2N1C(=O)c1nn(C)cc1Br (stereo not drawn) | i | 0.97 | -1.1 | 102 | 4 | -82 | 71
Cc1ccc(C(=O)NN2C(=O)C3C4c5ccccc5C(c5ccccc54)[C@@H]3C2=O)cc1 (stereo partly drawn) | i | 0.9 | -2.2 | 101 | -2 | . | .
CCOc1ccc(CCNC(=O)C2CCN(c3nn4c(=O)cc(C)nc4s3)CC2)cc1 | i | 0.92 | -1.3 | 102 | -11 | 8 | 89
Cc1cccc(NC(=O)C(C)OC(=O)c2ccccc2NS(=O)(=O)c2cc(C)c(C)c([N+](=O)[O-])c2)c1 (stereo not drawn) | i | 1.1 | -2.6 | 85 | -9 | -50 | 49
CCS(=O)(=O)N1CCC(C(=O)N2CCN(Cc3ccccc3)CC2)CC1 | i | 1.1 | . | 99 | -4 | -29 | 149
Oc1c(C=Nc2cccc3nsnc23)ccc2ccccc12 | i | 0.95 | -2.1 | 100 | -3 | 50 | 117
O=C(O)CCCN1C(=O)/C(=C/C=C/c2ccco2)SC1=S | i | 1.2 | . | 67 | . | . | .
O=C(N/C=N/OCc1ccc(Cl)cc1Cl)NOCc1c(Cl)cccc1Cl | i | 0.96 | 1.5 | 100 | -3 | -43 | 55
CCOC(=O)CSC1=C(C#N)C(c2ccccc2OCC)C(C#N)C(=O)N1 (stereo not drawn) | i | 0.9 | -1.3 | 101 | -6 | . | .
COC(=O)C1=NN(C(=O)c2ccc(Br)cc2)C(O)(C(C)(C)C)C1 (stereo not drawn) | i | 0.92 | . | 108 | 0 | . | .
Cc1nn(C)cc1/C=C1\CCC/C(=C\c2cn(C)nc2C)C1=O | i | 0.92 | -1.9 | 99 | -3 | 51 | 91
NC(=O)C(c1ccccn1)c1ncc(C(F)(F)F)cc1Cl (stereo not drawn) | i | 0.97 | . | 100 | -5 | . | .
COc1ccc2c(-c3ccccc3)cc3nnnn3c2c1 | i | 0.92 | -1.0 | 109 | 1 | -74 | 197
O=C(C1Cc2ccccc2CN1S(=O)(=O)c1ccc(F)cc1)N1CCCCCC1 (stereo not drawn) | i | 1 | -2.4 | 101 | -2 | -64 | 104
COc1ccc(C(=O)NCc2cccnc2)cc1S(=O)(=O)N1CCCc2ccccc21 | i | 1 | . | 101 | 0 | 11 | 155
COc1ccc(C(=O)Nc2ccc(O)cc2C(=O)O)cc1 | i | 0.84 | . | 101 | -4 | -21 | 100
O=C(N1CCN(CCO)CC1)N1c2ccccc2C=Cc2ccccc21 | i | 0.9 | -3.5 | 104 | 1 | . | .
Cc1c(NS(=O)(=O)c2ccc(Cl)c(C(=O)OCC(=O)NCc3ccco3)c2)c(=O)n(-c2ccccc2)n1C | i | 0.99 | . | 112 | -6 | -14 | 70
COc1ccc(S(=O)(=O)N(C)CC(=O)NCCC2=CCCCC2)cc1C | i | 0.98 | -2.3 | 104 | 3 | -193 | 131
CC(=O)Nc1ccc(S(=O)(=O)N(C)CC(=O)Nc2ccccc2N2CCOCC2)cc1 | i | 0.96 | -2.0 | 94 | 5 | . | .

Overlap with the part before: 5 entries, followed by the next part.
SMILES | HSV augment | HSV augment primary fold | GALR2 ag | RGS16-Gao HTS | PKD1 inh | INS promoter inh | INS promoter inh cell count
COc1ccc(C(=O)Nc2ccc(O)cc2C(=O)O)cc1 | i | 0.84 | . | 101 | -4 | -21 | 100
O=C(N1CCN(CCO)CC1)N1c2ccccc2C=Cc2ccccc21 | i | 0.9 | -3.5 | 104 | 1 | . | .
Cc1c(NS(=O)(=O)c2ccc(Cl)c(C(=O)OCC(=O)NCc3ccco3)c2)c(=O)n(-c2ccccc2)n1C | i | 0.99 | . | 112 | -6 | -14 | 70
COc1ccc(S(=O)(=O)N(C)CC(=O)NCCC2=CCCCC2)cc1C | i | 0.98 | -2.3 | 104 | 3 | -193 | 131
CC(=O)Nc1ccc(S(=O)(=O)N(C)CC(=O)Nc2ccccc2N2CCOCC2)cc1 | i | 0.96 | -2.0 | 94 | 5 | . | .
O=C(Cn1cc(C(F)(F)F)cc(Cl)c1=O)NCCc1ccccc1 | i | 1 | -1.5 | 100 | -5 | -16 | 77
CCCCN(CC(=O)Nc1c(C)cccc1CC)C(=O)SCC | i | 0.73 | -1.9 | 97 | 7 | -55 | 107
CN(C)c1ccc(P(=O)(Nc2cccc(C(F)(F)F)c2)N2CCOCC2)c(NC(=O)c2cccs2)c1 (stereo not drawn) | i | 0.83 | -1.3 | 99 | -9 | -47 | 191
COc1cc2c(cc1OC)-c1cc(N3CCCc4ccccc43)nc(=O)n1CC2 | i | 1 | 0.1 | 99 | 12 | . | .
Cc1ccc(S(=O)(=O)NC(=O)Nc2ccccc2F)cc1 | i | 0.72 | -0.7 | 108 | -2 | -20 | 155
Cc1cc(-c2n[nH]c(=S)n2Cc2ccco2)n(C)n1 | i | 1.2 | -0.5 | 10* | -9 | 33 | 103
O=C1NC(c2ccccc2)=C(c2nc3ccccc3s2)C(c2ccccc2)N1 (stereo not drawn) | i | 0.89 | -0.4 | 106 | -3 | 67 | 96
CC(C)c1nc2n[nH]c(N)c2c2c1CSC(C)(C)C2 | i | 0.94 | 3.1 | 99 | 6 | 0 | 93
CCN(C(=S)Nc1ccc(C(C)=O)cc1)C1CCCCC1 | i | 1.2 | . | 108 | -9 | -18 | 156
CCOC(=O)CC(NC(=O)c1ccc(C)cc1)c1ccc(C)cc1 (stereo not drawn) | i | 1.2 | 0.0 | 115 | -11 | -13 | 85
O=C1C(Cc2ccc(O)cc2)NC(=S)N1Cc1ccccc1 (stereo not drawn) | i | 1.1 | . | 95 | . | . | .
CCSc1nc(=O)n(-c2ccccc2)c(C)c1C(C)=S | i | 0.81 | -1.3 | 100 | -2 | 44 | 113
CC1=C(C(N)=O)C(c2ccccc2)n2nc(-c3cccc(C)c3)nc2N1 (stereo not drawn) | i | 0.9 | -0.6 | 99 | -10 | . | .
Cc1ccc(C2C(C(=O)O)c3ccccc3C(=O)N2C)c(C)c1 (stereo not drawn) | i | 0.99 | -1.8 | 100 | -16 | -29 | 123
CCCCNC(=O)CCn1c(=O)c2ccccc2n(Cc2cc(C)ccc2C)c1=O | i | 0.9 | -0.2 | 91 | 1 | 14 | 129
Cc1ccc(-n2nc(C(=O)NCc3ccco3)c3c4ccccc4n(C)c3c2=O)cc1 | . | . | 0.2 | 96 | 1 | -4 | 76
CSc1nnc(Cn2c(=O)sc3ccccc32)n1-c1ccccc1 | i | 0.96 | -3.6 | 182 | 4 | . | .
CCCN1CCN(C(=O)c2nn(-c3ccc(OC)cc3)c(=O)c3c2c2ccccc2n3C)CC1 | i | 0.92 | . | 98 | 1 | 12 | 112
CC(C)(C)C1CCC(OCC(O)CN2CCCC2)CC1 (stereo not drawn) | i | 1 | . | 95 | 4 | 32 | 89
CN(CC(=O)Nc1ccc(F)cc1)c1ccc(S(=O)(=O)N2CCCC2)cn1 | i | 1 | . | 107 | -3 | -61 | 93
O=C(N/N=C/c1ccc(O)c(O)c1)c1ccc(CSc2cccc3cccnc23)cc1 | i | 0.91 | -0.7 | 94 | 5 | -50 | 47
COc1ccc(N=Nc2ccc(O)c(P(=O)(c3ccccc3)c3ccccc3)c2)cc1 | i | 1 | . | 100 | . | . | .
CCOC(=O)c1ccc(NC(=O)c2nc[nH]c2C(=O)N2CCc3ccccc3C2)cc1 | i | 0.74 | . | 108 | . | . | .

3 compounds already listed, ordered by count of non-hydrogen atoms, low to high:
SMILES | HSV augment | HSV augment primary fold | GALR2 ag | RGS16-Gao HTS | PKD1 inh | INS promoter inh | INS promoter inh cell count
CCOC(=O)CC(NC(=O)c1ccc(C)cc1)c1ccc(C)cc1 (stereo not drawn) | i | 1.2 | 0.0 | 115 | -11 | -13 | 85
CC1=C(C(N)=O)C(c2ccccc2)n2nc(-c3cccc(C)c3)nc2N1 (stereo not drawn) | i | 0.9 | -0.6 | 99 | -10 | . | .
COc1cc2c(cc1OC)-c1cc(N3CCCc4ccccc43)nc(=O)n1CC2 | i | 1 | 0.1 | 99 | 12 | . | .

Bioassay records: PubChem, several laboratories
